CtBP-E1A blk – CtBP/E1A binding inhibition. AlphaScreen GST-E1A/His-CtBP binding, 1536-well; stronger effect = lower value; control for the full effect not named in the record. activity change, % (concentration not given with the values). 340,000 compounds, 0.49% hits; in the data active means activity change below about -65%; inconclusive means about -30% to -65%; inactive means above about -30%; further: on the % scale 0 is the no-effect control and ±100 the full control effect
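GST-E1A and His-tagged CtBP (125 nM each as 5X stock) were preincubated with pin-transferred compound for 2 h at 37 °C in the dark, then glutathione donor and nickel acceptor beads were added for 1 h before AlphaScreen reading.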
TRPV1 PAM – enhances activation of the human vanilloid receptor TRPV1. 320,000 compounds, 0.02% hits. AID 540277. TRPV1-expressing cells, Fluo-8 calcium influx, capsaicin EC20 potentiation; host cell line not named in the record; control for the full effect not named in the record. potentiation, % at 8.33 µM. Q8NER1; active means potentiation above 80%; inconclusive means 30% to 80%; inactive means below 30%; further: 0% is about no effect
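Fluo-8 calcium influx in TRPV1-expressing cells, kinetic read (ex 480/em 520 nm). Compound added and read 3 min for agonist activity, followed by capsaicin at EC20 final and 2 min further read for enhancement.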
TRPML1 blocker – inhibitors of human TRPML1 channel; TRPML1-inducible cells, Ca2+ dye fluorescence, FDSS; stronger effect = lower value; inhibition of EC80 agonist-evoked calcium signal; activity change, negative = inhibition, % (test concentration not listed); Q9GZU1; 390,000 compounds, 0.02% hits; in the data active means activity change below about -50%; inconclusive means about -30% to -50%; inactive means above about -30%;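 further: stimulus is agonist 54-4 at its EC80 concentration; on the % scale 0 is the no-effect control and ±100 the full control effect; compound concentration not given in the record; the text of the record puts the active cut at -80%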
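Calcium fluorescence in TRPML1-DL cells induced overnight with Tet: a 110 s read after compound pin addition, then a 110 s antagonist read after challenge with 54-4 at 4 uM final (EC80).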
TRPML1 ag – agonists of human TRPML1 channel; Q9GZU1; TRPML1-expressing cells, Ca2+ dye fluorescence, FDSS; host cell line not named in the record; reference of the full effect not given here; activation, % (no concentration beside the values); 410,000 compounds, 0.12% hits; in the data active = activation above about 50%; inconclusive = about 30% to 50%; inactive = below about 30%; further: 0% is about no effect; the text of the record puts the active cut at 80%
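Calcium fluorescence on an FDSS kinetic reader gave the read-out. Tet-induced TRPML1-DL cells were plated overnight, dye-loaded (Ca8 with quencher, 45-90 min, room temperature, dark), then read 110 s after compound addition, and again 110 s after 4uM final 54-4 (EC80).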
D2 potentiator – human D2 receptor positive allosteric modulation; DiscoveRx D2 beta-arrestin cells, luminescence, 90 min; 100% = 57 uM dopamine signal; potentiation, % (concentration not given with the values); 360,000 compounds, 0.23% hits; P14416; active = potentiation of 50% or more; inconclusive = 30% to 50%; inactive = 30% or less;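 further: tested on top of an EC20 dose of dopamine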
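D2 cells co-treated with compound plus 50 nM dopamine (EC20) for 90 min at 37 deg C to detect potentiation. Beta-arrestin recruitment was read as enzyme-fragment luminescence after 1 h at ambient temperature. Full response was set by 57 uM dopamine.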
Six1-Eya2 blk – Six1/Eya2 interaction inhibition; Q15475+O00167; AlphaScreen GST-Six1/His-Eya2 binding, biochemical; stronger effect = lower value; control for the full effect not named in the record; activity change, % (concentration not given with the values); 360,000 compounds, 0.56% hits; in the data active = activity change below about -65%; inconclusive = about -30% to -65%; inactive = above about -30%; further: on the % scale 0 is the no-effect control and ±100 the full control effect
Target sequence (O00167 whole entry, looked up): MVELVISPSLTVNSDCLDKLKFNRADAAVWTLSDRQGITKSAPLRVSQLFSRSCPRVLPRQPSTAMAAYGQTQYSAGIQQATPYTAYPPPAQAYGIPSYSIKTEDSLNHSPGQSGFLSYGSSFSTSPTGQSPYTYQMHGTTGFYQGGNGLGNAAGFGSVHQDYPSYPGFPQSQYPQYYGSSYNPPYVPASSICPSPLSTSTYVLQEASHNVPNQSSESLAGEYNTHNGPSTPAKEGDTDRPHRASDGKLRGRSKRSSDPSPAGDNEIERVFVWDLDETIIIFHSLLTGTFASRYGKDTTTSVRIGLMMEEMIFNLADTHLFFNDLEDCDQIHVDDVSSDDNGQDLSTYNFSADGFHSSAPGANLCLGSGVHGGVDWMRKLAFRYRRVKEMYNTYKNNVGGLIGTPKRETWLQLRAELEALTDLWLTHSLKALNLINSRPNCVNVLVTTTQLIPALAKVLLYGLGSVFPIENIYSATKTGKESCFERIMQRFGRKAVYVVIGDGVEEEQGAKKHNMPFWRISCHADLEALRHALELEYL
Target sequence (Q15475 whole entry, looked up): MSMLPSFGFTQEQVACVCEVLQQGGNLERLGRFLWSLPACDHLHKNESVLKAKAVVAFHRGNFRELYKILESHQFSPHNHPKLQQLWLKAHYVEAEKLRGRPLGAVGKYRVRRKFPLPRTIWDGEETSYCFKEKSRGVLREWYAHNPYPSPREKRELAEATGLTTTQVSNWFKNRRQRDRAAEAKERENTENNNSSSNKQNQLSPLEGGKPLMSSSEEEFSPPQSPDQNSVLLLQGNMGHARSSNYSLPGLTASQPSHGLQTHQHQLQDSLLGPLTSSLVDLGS
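AlphaScreen luminescence read after one hour at 37 °C in darkness. Pin-transferred compounds met GST-Six1 and His-Eya2 protein (5X stock 250 nM/500 nM) plus glutathione donor and Ni-chelate acceptor beads (5X, 50 ug/mL).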
* = called active by the depositor; ? = inconclusive; / = not tested or not shown; & = joins results of further samples.

SMILES | CtBP-E1A blk | TRPV1 PAM | TRPML1 blocker | TRPML1 ag | D2 potentiator | Six1-Eya2 blk
O=C(NC1CCCCCCC1)C1CCN(c2nc3ccccc3o2)CC1 | 0 | 17 | 10 | 3.2 | -7 | -2
O=C(NCCCCNC(=O)c1ccc(Br)s1)c1ccc(Br)s1 | 1 | 3 | -13 | 0.4 | -11 | -1
CCNC(=S)NNC(=O)c1csc2ccccc12 | 10 | 9 | 31 | 0.8 | -21 | -1
CSc1ncnc2ncn(C)c12 | 4 | / | 26 | 1.4 | 6 | 1
O=c1oc2c3c4c(cc2s1)CCCN4CCC3 | ? | ? | 23 | -0.2 | -18 | ?
CCOc1ccc(C(=O)Nc2ccc(S(=O)(=O)NCC3CCCO3)cc2)cc1OCC (stereo unspecified) | -17 | 13 | 3 | 1.2 | -6 | -8
CCN1CCCC1CN(Cc1cc2ccc(C)cc2[nH]c1=O)C(=S)Nc1ccccc1OC (stereo unspecified) | -12 | 0 | 30 | 1.7 | -33 | -14
Nc1nnnn1/N=C/c1cc(Cl)cc(Cl)c1OCc1ccc(Cl)cc1Cl | 7 | -11 | 7 | -0.5 | -1 | 7
O=Cc1sc([O-])nc1-[n+]1ccc2ccccc2c1 | -5 | -3 | 23 | 1.2 | -3 | -5
Cc1cn([C@H]2C[C@H](O)[C@@H](CCC(=O)NC(c3ccccc3)c3ccccc3)O2)c(=O)[nH]c1=O | 4 | / | -12 | -0.4 | / | 0
COc1ccc(OC)c(CNC(=O)CCCc2cn(C)c3ccccc23)c1 | -22 | 1 | -3 | 2.8 | -8 | -28
Cc1ccc(/C=c2/sc3nnc(-c4ccccc4Cl)n3c2=O)o1 | -11 | 9 | -16 | -0.5 | -22 | -4
O=C(Oc1cccnc1)c1cc(S(=O)(=O)N2CCCCC2)ccc1Cl | 4 | 14 | 0 | 0.9 | -8 | 4
O=C(CCCc1ccccc1)Nc1cccc([N+](=O)[O-])c1 | / | 1 | -5 | -1.2 | -6 | -9
COc1ccc(-c2cc(C(=O)Nc3ccccc3O)c3ccccc3n2)cc1OC | -3 | -5 | 14 | 0.6 | 2 | 2
CNC(=S)n1cnc(N)n1 | / | 6 | -16 | -0.2 | -24 | 13
O=C(Nc1ccc(F)cc1)C1CCN(c2ncnc3c2nc2n3CCCCC2)CC1 | / | -5 | 11 | 5.9 | -6 | 2
COc1cc(CCNc2ccc3nnc(-c4ccccc4)n3n2)cc(OC)c1OC | -90* | -6 | 1 | 1.3 | 5 | -80*
CC(C)c1ccc(/C=N/NC(=O)CC(=O)NC2CCCCC2)cc1 | 11 | -25 | -2 | -0.3 | -2 | 11
COc1ccc(-c2sc3ccc(OC)cc3c2-c2ccc(OC)nc2)cc1 | -3 | / | 15 | 0.7 | -3 | 0
CCCCN1C2=NCCCN2c2cc(C)c(C)cc21 | 11 | -3 | 0 | -0.2 | -10 | -5
Cn1nc(CC(=O)N2CCN(c3ccccc3)CC2)c2ccccc2c1=O | -4 | 0 | -1 | -0.7 | -5 | -1
c1ccc(Cn2ccc(-c3cnc(-c4ccccc4)s3)n2)cc1 | 36 | 6 | 1 | 5.2 | -14 | 35
COc1ccc(OCC(O)Cn2ccnc2C)cc1 (stereo unspecified) | 9 | -7 | -13 | -0.6 | -5 | 1
CCOc1ccc(C2CC(=O)NC(SC)=C2C#N)cc1 (stereo unspecified) | -1 | 8 | -4 | -1.2 | -4 | -1

Exported as labelled records: entries from further up
compound: CCNC(=S)NNC(=O)c1csc2ccccc12
  CtBP-E1A blk: 10
  TRPV1 PAM: 9
  TRPML1 blocker: 31
  TRPML1 ag: 0.8
  D2 potentiator: -21
  Six1-Eya2 blk: -1

compound: CSc1ncnc2ncn(C)c12
  CtBP-E1A blk: 4
  TRPV1 PAM: /
  TRPML1 blocker: 26
  TRPML1 ag: 1.4
  D2 potentiator: 6
  Six1-Eya2 blk: 1

compound: O=c1oc2c3c4c(cc2s1)CCCN4CCC3
  CtBP-E1A blk: ?
  TRPV1 PAM: ?
  TRPML1 blocker: 23
  TRPML1 ag: -0.2
  D2 potentiator: -18
  Six1-Eya2 blk: ?

compound: CCOc1ccc(C(=O)Nc2ccc(S(=O)(=O)NCC3CCCO3)cc2)cc1OCC (stereo unspecified)
  CtBP-E1A blk: -17
  TRPV1 PAM: 13
  TRPML1 blocker: 3
  TRPML1 ag: 1.2
  D2 potentiator: -6
  Six1-Eya2 blk: -8

The listing continues:
SMILES | CtBP-E1A blk | TRPV1 PAM | TRPML1 blocker | TRPML1 ag | D2 potentiator | Six1-Eya2 blk
C=CCNC(=O)COc1ccc(N(C)S(=O)(=O)c2ccc(NC(C)=O)cc2)cc1 | 2 | -5 | 3 | -0.5 | 0 | 1
CCn1ccnc1CN1CCC(n2nccc2NC(=O)CCc2ccccc2)CC1 | -5 | 10 | -19 | -0.3 | -11 | -2
CS(=O)(=O)N1CCN(c2ccc(NC(=S)NC(=O)c3ccc4c(c3)OCO4)cc2)CC1 | 5 | -1 | 5 | 0.4 | 8 | 15
Cc1c(N2C(=O)CSC2c2ccco2)c(=O)n(-c2ccccc2)n1C (stereo unspecified) | -23 | -2 | 2 | 0.2 | -1 | -5
O=C(Nc1ccon1)c1ccc(Br)o1 | -2 | 7 | -10 | -0.3 | 0 | 0
COc1cccc(CN(C(=O)/C=C/c2ccco2)C2CCS(=O)(=O)C2)c1 (stereo unspecified) | 11 | 3 | -3 | -0.8 | -10 | -7
Cc1nccn1CC1CCc2c(c3ccccc3n2C)C1=O (stereo unspecified) | -1&-17 | -19 | -12&4 | -0.2&0.9 | -19&-24 | 5&3
COc1ccc(-n2c(NCCN(C)C)nc3sc4c(c3c2=O)CCCCC4)cc1 | -6 | -16 | 6 | -0.2 | -17 | -5
COCCNC(=O)c1cc2c(-c3ccccc3F)nn(C)c2s1 | ? | -18 | 29 | 2.3 | -20 | -23
CCC(C)(C)n1nnnc1C(c1ccc2ncccc2c1)N1CCN(c2ccc(O)cc2)CC1 (stereo unspecified) | -8 | 17 | -12 | -0.4 | 12 | -14
O=C1CC(Sc2ncccn2)C(=O)N1c1ccccc1C(F)(F)F (stereo unspecified) | -4 | -23 | 12 | -0.8 | 1 | 0
Cc1cccn2c(=O)c3cc(C(=O)N4c5ccccc5CC4C)n(C)c3nc12 (stereo unspecified) | 5 | -14 | -5 | -0.3 | -4 | 0
COc1cc2nc(CC(C)C)n(NC(=O)c3ccccc3Br)c(=O)c2cc1OC | 0 | -20 | -12 | -0.5 | 0 | 4
N#CCc1ccc(Oc2ncccn2)cc1 | / | 29 | -30 | 1.0 | -8 | 8
Cc1c(OCc2ccc(C(=O)O)cc2)ccc2c(-c3ccccc3)cc(=O)oc12 | 1 | 7 | 30 | -0.7 | -3 | -74*
Cc1ccc(C)c(OCCC(=O)OCC(=O)NC2CCS(=O)(=O)C2)c1 (stereo unspecified) | 5 | 6 | -13 | -1.4 | 1 | 3
O=C(CSCCO)Nc1cccc2ccccc12 | -1 | -11 | -2 | -0.8 | 1 | 2
CCN(C(=O)CSc1nc2ccccc2c(=O)n1CCOC)C1CCS(=O)(=O)C1 (stereo unspecified) | 3 | 6 | 1 | -0.4 | -3 | -2
Cc1cc(NC(=O)CCC(=O)N(c2ccccc2)C(C(=O)NC2CCCC2)c2ccncc2)no1 (stereo unspecified) | -1 | 17 | -8 | -0.4 | 0 | 2
COC(=O)CCCC1=CC2=C(c3ccccc3)C(=O)C(C)(OC(=O)C3CCCC3)C(=O)C2=CN1C1CCCCC1 (stereo unspecified) | -28 | -10 | 27 | -0.2 | -12 | -26
C=C(C)COc1ccc(-c2ncncc2-c2ccc(Cl)cc2)c(O)c1 | -12 | -19 | 58 | 3.2 | -3 | -12
O=C(N/N=C/c1c(Cl)cccc1Cl)c1ccc(-n2cnnn2)cc1 | / | 28 | -9 | -1.2 | 13 | -1
COc1ccc(OC)c(NC(=O)C2CCN(S(=O)(=O)c3c(C)noc3C)CC2)c1 | 29 | 3 | -8 | 1.3 | -23 | 11
CC(C)C[C@H]1CN(CCCC[C@@H]2CNC(=O)C(=O)N2CCc2ccccc2)C(=O)C(=O)N1Cc1ccccc1 | -7 | / | / | -0.2 | / | -15
Cc1cc(C)c(C)c(S(=O)(=O)N2CCN(c3ncnc4sc(C)c(C)c34)CC2)c1C | 11 | -2 | -2 | -0.1 | -1 | 8

Complete entries, quoted from the list. Order of values: CtBP-E1A blk, TRPV1 PAM, TRPML1 blocker, TRPML1 ag, D2 potentiator, Six1-Eya2 blk
Cc1nccn1CC1CCc2c(c3ccccc3n2C)C1=O (stereo unspecified) as listed: -1&-17, -19, -12&4, -0.2&0.9, -19&-24, 5&3
CC(C)c1ccc(/C=N/NC(=O)CC(=O)NC2CCCCC2)cc1 as listed: 11, -25, -2, -0.3, -2, 11
O=C(N/N=C/c1c(Cl)cccc1Cl)c1ccc(-n2cnnn2)cc1 as listed: /, 28, -9, -1.2, 13, -1
Cc1ccc(C)c(OCCC(=O)OCC(=O)NC2CCS(=O)(=O)C2)c1 (stereo unspecified) as listed: 5, 6, -13, -1.4, 1, 3

New compounds follow:
SMILES | CtBP-E1A blk | TRPV1 PAM | TRPML1 blocker | TRPML1 ag | D2 potentiator | Six1-Eya2 blk
Cc1nn(C)c(C)c1CCC(=O)N1CCCC(C(=O)c2cccc(OC(C)C)c2)C1 (stereo unspecified) | 2 | 6 | -13 | 0.4 | -6 | 0
S=c1nccc(-c2cc(Cl)sc2Cl)[nH]1 | -3 | 2 | -12 | 0.9 | -1 | 11
COc1ccc(C(NC(=O)c2cccnc2)c2cc(Cl)c3cccnc3c2O)cc1OC (stereo unspecified) | -92* | 4 | -6 | 10 | -60 | -91*
Cn1cccc1/C=N/NC(=O)c1cc2ccccc2cc1O | -21 | 0 | -10 | 0.2 | -11 | -23
O=C(O)C(=O)Nc1nc(-c2ccc3c(c2)OCCO3)cs1 | / | -4 | -12 | 0.1 | -12 | ?
CNS(=O)(=O)c1ccc(N2CCCC2)c([N+](=O)[O-])c1 | / | 3 | -17 | 0.8 | -11 | 0
COc1ccc(OCCCC(=O)N(CCC2=CCCCC2)c2c(N)n(Cc3ccccc3)c(=O)[nH]c2=O)cc1 | 3 | -3 | 5 | 1.8 | -68 | -3
CCO[C@H]1OC(C(=O)NCc2ccccc2)=C[C@@H](C)[C@@H]1CCCO | 3 | 17 | -6 | -0.8 | 2 | 9
O=C(CNC(=O)c1cccc(Cl)c1)Nc1ccc(F)c(F)c1F | / | -9 | -6 | -0.4 | -6 | 8
CCO[C@@H]1OC(C(=O)O)=C[C@H](C2CCCCC2)[C@H]1CCCO | 2 | -10 | 14 | -0.4 | -6 | -2
CCOc1ccccc1NC(=O)c1csc(C)c1C | 15 | 5 | 14 | 0.8 | -7 | 4

2 compounds drawn at random from the list so far, as already listed:
SMILES | CtBP-E1A blk | TRPV1 PAM | TRPML1 blocker | TRPML1 ag | D2 potentiator | Six1-Eya2 blk
COc1ccc(OCC(O)Cn2ccnc2C)cc1 (stereo unspecified) | 9 | -7 | -13 | -0.6 | -5 | 1
Cc1nn(C)c(C)c1CCC(=O)N1CCCC(C(=O)c2cccc(OC(C)C)c2)C1 (stereo unspecified) | 2 | 6 | -13 | 0.4 | -6 | 0

This is a random part of the collection, and some 0.95% of all compounds hit somewhere here.
